Source: PubChem BioAssay
CBX7 AlphaScr – CBX7 chromodomain binding inhibitors, primary screen, biochemical, AlphaScreen; normalised signal (fraction of DMSO) (no concentration beside the values); hit rate 1.1% among 66,000; AlphaScreen His6-CBX7 / biotin-H3K27me3 peptide binding; active compounds read low; Chromobox protein homolog 7 (Homo sapiens), O95931; in the data active = normalised signal below about 0.5;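 note: 100 nL library stock added to about 20 µL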
Target sequence (O95931 whole entry, looked up): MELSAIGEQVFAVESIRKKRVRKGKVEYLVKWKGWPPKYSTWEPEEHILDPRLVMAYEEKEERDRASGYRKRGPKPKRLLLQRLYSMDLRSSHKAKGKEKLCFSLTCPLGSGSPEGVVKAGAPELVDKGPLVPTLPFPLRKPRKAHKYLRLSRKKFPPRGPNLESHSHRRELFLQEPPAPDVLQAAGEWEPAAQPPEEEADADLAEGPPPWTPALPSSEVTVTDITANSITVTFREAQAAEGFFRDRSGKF
CBX7 AlphaScr z-score – further read-out of CBX7 AlphaScr, marked with its call; z-score; measured here: z-score of CBX7 signal; some inactives read as strong as hits; reference of the scale not given here;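 same signal on another scale; lower means less binding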
An asterisk follows results filed as active; & = joins results of further samples.

SMILES	CBX7 AlphaScr	CBX7 AlphaScr z-score
COc1cccc(NS(=O)(=O)c2ccc3[nH]cc(C(=O)NCc4ccccc4)c(=O)c3c2)c1	1.04	0.522
COc1ccc(-c2cc3cc(OC)c(OC)cc3c(C)n2)cc1C	1.03	0.408
CC(C)CCNC(=O)C1CCN(c2nc3ccc(Br)cc3s2)CC1	1.06	1.32
Cc1cccc(C)c1NC(=O)c1cnc2scc(C)n2c1=O	0.979	-0.753
O=C1CN(C(=O)c2cccs2)C(c2ccccc2)c2cc(F)ccc2N1 (centres undefined)	0.919	-0.341
Cc1ccc(S(=O)(=O)Nc2ccc3c(c2)C(=O)NC3=O)cc1	1.07	1.53
Cc1cccc(OC(=O)CSc2nnc(C)c3ccccc23)c1	0.791	-0.825
CCC(=O)N1CCc2cc(S(=O)(=O)NC(CC(C)C)C(=O)N3CCCCC3)ccc21 (centres undefined)	1.23	3.44
Cc1ccc(CNc2oc(COc3ccccc3F)nc2C#N)cc1	0.776	-2.84
Cc1ccc(C(C)C)c(OCCNC(=O)CCC2CCCC2)c1	1.05	0.565
O=C(Nc1ccc(-c2nc3ccccc3o2)cc1)c1cccc(Oc2ccccc2)c1	1.22	1.7
CCCOc1ccc(C2CC(=O)Nc3cc(C)c(C)cc32)cc1 (centres undefined)	0.969	-0.577
Cc1nc(-c2cccc(NS(=O)(=O)c3ccccc3)c2)cs1	0.898&0.942	-1.56&-1
Cc1onc(-c2ccccc2Cl)c1C(=O)NCc1ccccn1	1.03	1.4
Cc1ccc(S(=O)(=O)C2(C(=O)Nc3cccc(C)n3)CC2)cc1	0.964	-0.712

One compound at a time, as listed above. Screens in order: CBX7 AlphaScr, CBX7 AlphaScr z-score
CC(C)CCNC(=O)C1CCN(c2nc3ccc(Br)cc3s2)CC1 is listed as 1.06, 1.32
Cc1nc(-c2cccc(NS(=O)(=O)c3ccccc3)c2)cs1 is listed as 0.898&0.942, -1.56&-1
Cc1cccc(C)c1NC(=O)c1cnc2scc(C)n2c1=O is listed as 0.979, -0.753
O=C(Nc1ccc(-c2nc3ccccc3o2)cc1)c1cccc(Oc2ccccc2)c1 is listed as 1.22, 1.7
Cc1cccc(OC(=O)CSc2nnc(C)c3ccccc23)c1 is listed as 0.791, -0.825

The listing picks up, starting 3 compounds before the break.
SMILES	CBX7 AlphaScr	CBX7 AlphaScr z-score
Cc1nc(-c2cccc(NS(=O)(=O)c3ccccc3)c2)cs1	0.898&0.942	-1.56&-1
Cc1onc(-c2ccccc2Cl)c1C(=O)NCc1ccccn1	1.03	1.4
Cc1ccc(S(=O)(=O)C2(C(=O)Nc3cccc(C)n3)CC2)cc1	0.964	-0.712
COCc1nc2ccccc2n1CCOc1ccccc1Cl	1.03	1.2
Cc1ccc(CCNC(=O)c2c[nH]n3c(=O)c(Cc4ccccc4F)c(C)nc23)cc1	1.04	0.67
Cc1cc2c(cc1C)NC(c1cccc3ccccc13)C1=C(CC(C)(C)CC1=O)N2 (centres undefined)	0.915	-0.576
CC(C)CCNC(=O)c1ccc2nc(-c3ccco3)c(-c3ccco3)nc2c1	0.663	-0.944
CC(NC(=O)c1cccc2c1C(=O)N(Cc1cccnc1)C2)c1cccs1 (centres undefined)	0.947	-0.436
O=C(Cc1ccccc1)NCc1nc2ccccc2n1Cc1c(F)cccc1Cl	0.936	-0.742
CCC(=O)NCCc1nc2ccccc2n1Cc1ccccc1	1.03	0.265
CCOc1ccccc1NC(=O)c1cnc2ccccn2c1=O	0.905	-1.35
COc1ccc(NC(=O)c2ccc3c(c2)C(=O)N(c2ccc(OC)cc2)C3=O)cc1	0.99	-0.365
O=C(C1CCN(c2nnc(-n3cccc3)s2)CC1)N1CCC(N2CCCCC2)CC1	1.06	2.56
CN1C(=O)CSc2ccc(NC(=O)NCc3ccccc3Cl)cc21	0.988	-0.343
CC1(C)Cc2c(C#N)c(N3CCCC3)nc(-c3ccccc3)c2CO1	1.11	1.35
CC1=Nc2cc(C(=O)NCCC3=CCCCC3)ccc2Sc2ccc(C)cc21	0.948	-1.06
COc1ccc(NC(=O)Cn2c(-c3ccccc3Cl)nc3sc(C)c(C)c3c2=O)cc1Cl	0.957	-1.15
O=S1(=O)NC(=NC2CCCCC2)c2ccccc21	1.03	1.08
CCn1nnnc1-c1ccc(OC)c(S(=O)(=O)Nc2ccccc2OC)c1	0.973	-0.35
O=c1[nH]c(SCc2ccccc2F)nc2c1CCCC2	0.926	-1.05
COc1ccc(C(=O)c2cn(Cc3ccc(F)cc3)c3cc(OC)c(OC)cc3c2=O)cc1	0.836	-1.56
Cc1cccc(-c2nc3cc(NC(=O)c4cccc(Br)c4)ccc3o2)c1	1.12	1.17
COc1ccc(NC(=O)CCc2c(C)nc3nc(C)nn3c2C)cc1Cl	0.907	-0.403
COc1ccc(-n2nc(C(=O)Nc3cc(C)ccc3OC)c3ccccc3c2=O)c(OC)c1	0.94	-1.6
O=C(O)C1CCN(C2CC(=O)N(c3ccc(Cl)cc3)C2=O)CC1 (centres undefined)	0.848	-2.41
CCc1ccc(OCc2nc(-c3ccc(Cl)cc3)no2)cc1	1.33	0.368
Cc1cc2nc(Cc3ccc(OC(F)F)cc3)c(=O)n(C)c2cc1C	1.06	1.55
O=C(NCCc1ccccc1)C1CC(=O)N(c2ccc(Cl)c(Cl)c2)C1 (centres undefined)	1.08	0.103
Cc1nc(N)sc1-c1csc(Nc2ncccn2)n1	0.693	-6.08
CCOc1nc(-c2ccccc2)c2cc(Cl)ccc2n1	0.997	-0.0454
COc1ccccc1NC(=O)Cn1c(=O)n(CCc2c[nH]c3ccccc23)c(=O)c2cccnc21	0.936	-2.09
C=CCSc1nnc(Cc2cc(=O)[nH]c(=O)[nH]2)n1-c1cc(C)ccc1C	0.934	-0.55
Cc1nc2ccc(S(=O)(=O)N(C)CC(=O)NC(C)c3ccccc3)cc2s1 (centres undefined)	1.03	0.451

A second format for 2 compounds above.
Order of results: CBX7 AlphaScr	CBX7 AlphaScr z-score
Cc1cccc(-c2nc3cc(NC(=O)c4cccc(Br)c4)ccc3o2)c1
 : 1.12	1.17
COc1ccc(NC(=O)CCc2c(C)nc3nc(C)nn3c2C)cc1Cl
 : 0.907	-0.403

Other entries
SMILES	CBX7 AlphaScr	CBX7 AlphaScr z-score
CCOC(=O)N1CCC(Nc2c(N(CCc3ccccc3)Cc3ccccc3)c(=O)c2=O)CC1	0.941	-0.706
COc1ccc(CNC(=O)c2onc(C)c2Cl)cc1	1.02	0.644
CCOc1ccc(C(=O)Nc2c(C(=O)Nc3ccccc3F)oc3ccccc23)cc1	1.05	0.633
CC1=CC(C)C2(CO)COC(c3ccc4c(c3)OCO4)C1C2C (centres undefined)	0.762	-0.667
O=C(CCc1cn(Cc2ccccc2)c2ccccc12)NCc1ccc(F)cc1Cl	0.989	-0.188
CCCCN(CC)CCNC(=O)c1cc(Nc2ccc(OC)cc2)nc2ccccc12	0.918	-0.0816
Cc1onc(-c2c(F)cccc2Cl)c1C(=O)Nc1ccc(C(C)C)cc1	0.972	-0.323
COc1ccc(OC)c(CCNc2ccc3nnc(CCC(=O)Nc4ccc(C)cc4)n3n2)c1	0.957	-0.733
COc1ccc(Cc2nnc(NC(=O)Cc3cccs3)s2)cc1OC	0.57	-4.87
Fc1ccc(/C=C/c2ccc3cccc(OCc4ccccc4)c3n2)cc1	1.32	3.85
CCOc1ccc(NC(=O)N(C(C)C)C2CCN(C(C)=O)CC2)cc1	1.16	1.28
COc1ccc(OC)c2c1CC(C)(C)n1c(-c3ccccc3)nnc1-2	1.01	0.0295
O=C1C(Oc2ccccc2)C(c2ccc3c(c2)OCO3)N1c1cccc(Cl)c1 (centres undefined)	1.02	0.727
CCOC(=O)C1CCN(C(=O)Cn2nc(Cc3cccnc3)c3ccccc3c2=O)CC1	1.18	1.84
CCN(CC)S(=O)(=O)c1ccc(C(=O)Nc2c(C(N)=O)oc3ccccc23)cc1	1.03	0.512
CCCCCC(O)(CCN1CCCCC1)c1ccccc1 (centres undefined)	1.09	2.44
CN(C)CCNS(=O)(=O)c1cc(Br)cc2c1N(C(=O)C1CC1)CC2	1	0.145
CCN(c1ccccc1)S(=O)(=O)c1ccc2[nH]cc(C(=O)NCCOC)c(=O)c2c1	1	0.0296
O=C(Cn1nc(-c2ccccc2)c2ccccc2c1=O)NCCO	1.04	1.53
COc1ccc(Cl)cc1NC(=O)CCC(=O)Nc1ccc2nc(N3CCOCC3)cc(C)c2c1	1.02	1.12
CCOc1ccc(S(=O)(=O)NCCc2c(C)[nH]c3ccc(C)cc23)c2ccccc12	0.881	-1.14
CCOc1ccc(CCNC(=O)Nc2ccc(C)c(C)c2)cc1OCC	1.05	0.353
O=C(CSc1nnc(-c2ccc(F)cc2)o1)Nc1nccs1	0.882	-0.27
COc1ccc(C2=NN(CC(=O)Nc3ccc(Br)cc3F)C(=O)CC2)cc1	1.03	0.396
CC1CC(C)CN(S(=O)(=O)c2ccc(F)c(C(=O)Nc3ccc(F)c(F)c3)c2)C1 (centres undefined)	1.24	1.8
COc1ccc(OC)c(NC2c3ccccc3C(=O)N2Cc2ccccc2Cl)c1 (centres undefined)	0.831	-0.169
Cc1csc2nc(CSc3nc4ccccc4o3)c(Br)n12	0.978	-0.475
COc1ccccc1CNC(=O)c1cnc2sccn2c1=O	1.08	1.88
OCCCc1nc2ccccc2n1CCCCOc1ccccc1	0.934	-0.287
Cc1ccc(S(=O)(=O)c2nc(-c3cccs3)oc2SCC(N)=O)cc1	0.889	-0.192
Clc1ccccc1CSc1nnc(Nc2ccccc2)n1-c1ccccc1	0.96	-1.07
CC(C)NC(=O)CCCc1cn(C)c2ccccc12	1.18	1.45
CCCCSc1nnc2c(n1)OC(C1CC=C(C)CC1)Nc1ccccc1-2 (centres undefined)	0.883	-1.27
Cc1c(C(=O)Nc2ccc3c(c2)OCCO3)sc2ncn(CC(=O)N3CC(C)CC(C)C3)c(=O)c12 (centres undefined)	1.04	1.03
CCOc1ccc2nc(SCC(=O)Nc3nc4cc(OC)ccc4s3)[nH]c2c1	0.995	-0.056
O=C(Nc1ccc2c(c1)OCO2)c1cc(-c2ccc(Cl)c(Cl)c2)on1	1.06	1.73
O=C1CC(N2CCN(Cc3ccc4c(c3)OCO4)CC2)C(=O)N1CCc1ccccc1 (centres undefined)	1.18	1.3
Cc1ccccc1N1CCN(c2nc(-c3ccccc3)c3cc(Br)ccc3n2)CC1	1.14	0.542
Cc1ccc(NC(=O)C2CCCN2S(=O)(=O)c2cccc3cccnc23)cc1 (centres undefined)	0.973	-0.922
COc1ccccc1NC(=O)c1c(NCc2sccc2C)sc2c1CCC2	0.813	-3.69
COc1ccc(-c2nc(C(=O)NCCCOC(C)C)c(C)o2)cc1	1.05	0.581
COc1ccccc1-c1csc(NC(=O)C23CC4CC(CC(C4)C2)C3)n1	0.961	-0.824
Cc1ccc(OCC(=O)Nc2ccc(-c3nc4cc(C)cc(C)c4o3)cc2)c(C)c1	1.02	0.162
O=C(Nc1nnc(COc2ccccc2Cl)s1)C12CC3CC(CC(C3)C1)C2	1.08	1.51
COc1ccc(OC)c(CN2CCN(Cc3ccccc3OC)CC2)c1	0.815	-3.17
COc1ccccc1Nc1nc(-c2ccccc2)c(Oc2ccc(Cl)cc2)s1	0.853&0.647	-3.93&-13.2
COc1ccc(NC(=O)CCCOc2cc(=O)n(C)c3ccccc23)cc1OC	1.02	0.373
O=C(Cc1cccs1)Nc1ccc2nc3n(c(=O)c2c1)CCCCC3	1.02	0.616
CCCc1sc(Nc2cccc(Br)c2)nc1-c1ccccc1	1.11	2.22
O=C(CSc1ccc2nnc(-c3ccccc3)n2n1)N1CCCC1	1	0.127
CCC1CCCCN1CCCNC(=O)c1cn(CC(C)C)c(=O)c2cc(OC)c(OC)cc12 (centres undefined)	1.18	1.41
COc1ccccc1C(=O)N1CC(=O)Nc2ccc(C)cc2C1c1ccccc1 (centres undefined)	0.964	-0.15
COc1ccc(CNC(=O)C2CC(=O)N(c3ccc(OCC(=O)Nc4ccccc4)cc3)C2)cc1 (centres undefined)	1.01	0.235
O=C(Nc1ccc(F)cc1F)C1CCN(C(=O)c2cnn(-c3ccccc3)c2-n2cccc2)CC1	0.942	-0.134
CCOC(=O)c1c(C)n(CCOc2ccc(CC)cc2)c2c1cc(O)c1ccccc12	1.01	0.138
O=C(Cn1nc(Cc2ccncc2)c2ccccc2c1=O)Nc1nc2ccccc2s1	0.95	-1.1
CCN(CCNC(=O)CC1Oc2ccccc2NC1=O)c1ccccc1 (centres undefined)	1.15	0.885
NS(=O)(=O)c1ccc(CCNS(=O)(=O)c2ccc(Cl)cc2)cc1	1.13	2.05
COC(=O)C(C)C1Sc2ccccc2N(Cc2ccccc2Cl)C1=O (centres undefined)	0.988	-0.239
COc1ccc(-c2noc(CCC(=O)Nc3cnc4ccccc4c3)n2)cc1	0.878	-1.88
Additional entries follow.
SMILES	CBX7 AlphaScr	CBX7 AlphaScr z-score
COc1ccc(NC(=O)c2c(NCc3sccc3C)sc3c2CCCC3)c(OC)c1	0.644	-7.03
O=C(c1cn(-c2ccc(Cl)cc2)c(=O)c2ccccc12)N1CCOCC1	1.09	2.93
COc1cc2c(C(=O)N3CCCC(C)C3)cn(CC(C)C)c(=O)c2cc1OC (centres undefined)	1.19	2.13
COc1ccc(OCc2nc(C#N)c(NCc3ccc4c(c3)OCO4)o2)cc1	0.729	-9.04
COc1ccc(CN2CCN(Cc3ccccc3C(F)(F)F)CC2)cc1OC	1.02	0.588
O=C(CCn1nc(-c2ccccc2)ccc1=O)NCC1CCCO1 (centres undefined)	0.984	-0.487
Cc1ccc(C(=O)Nc2ccc3oc(-c4cccnc4)nc3c2)cc1	1.07	0.0926
CCc1ccccc1N(C)S(=O)(=O)c1ccc2[nH]cc(C(=O)NC(C)C)c(=O)c2c1	0.995	-0.0497

The list is partial; the hit share may differ from the screen's.
